Autofluor counter: counter-screen for toxin protease inhibitors: compound fluorescence. fluorescence intensity (no concentration beside the values). compound autofluorescence counterscreen, microsphere flow cytometry; active compounds read high. AID 624483. 360,000 tested, 3.1% active;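 active means at least 3 SD above the mean of all compounds, about 16000 in these data; inconclusive means too few beads counted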;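 further: 100 nL of 1 mM stock went into each well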
Mtb hypoxia rep: inhibitors of hypoxia-regulated fluorescent reporter in Mycobacterium tuberculosis. 300,000 tested, 0.1% active. M. tuberculosis hypoxia-regulated fluorescent reporter, fluorescence. fluorescence inhibition, % (concentration not given with the values);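 active means 35 to 45% if threefold the growth effect, above 45% if 1.5-fold the growth effect; inactive means the rest, general growth blockers included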;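 further: wells of about 50 µL received 100 nL stock; 0% = vehicle wells and 100% = reference inhibitor wells; whole bacteria with a GFP reporter of the hypoxia response; strong numbers were not always called active; many hits fall short of the cut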
RN4220 kill: S. aureus RN4220 growth inhibition. 330,000 tested, 0.33% active. OD600, 16 h. inhibition, % (concentration not given with the values);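 active means z-score of -3 or lower and OD600 up to 0.18 on both plates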;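 further: plate controls were untreated cells for no effect and reference antibiotic for full effect; stock transfer was 100 nL into about 80 µL; one replicate is shown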
BJeLR lethal: BJeLR cell viability loss. BJeLR (HRASV12) viability, CellTiter-Glo ATP luminescence, 48 h; reference of the scale not given here. inhibition, % (no concentration beside the values). 300,000 tested, 0.17% active;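 active means replicate mean above 50%; inconclusive means above 50% but judged a plate artefact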;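 further: 50 nL library stock added to about 25 µL; numbers are from one replicate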
ugtP null kill: kills S. aureus RN4220 lacking UgtP; S. aureus RN4220 ugtP deletion, OD600 growth, 16 h; some inactives read as strong as hits; growth inhibition, % (test concentration not listed); 330,000 tested, 0.54% active; AID 1259309;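 active means z-score under -3 and OD600 up to 0.15 on both plates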;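 further: plate controls were untreated wells for no effect and antibiotic for full effect; wells of about 80 µL received 100 nL stock; the first replicate is given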
PrP 5UTR inh: suppresses PrP 5' UTR mRNA reporter expression; cell-based PrP 5' UTR mRNA reporter, plate reader; inhibition, % (test concentration not listed); 340,000 tested, 0.35% active; AID 488862;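 active means every replicate at 50% or more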;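 further: 0 = median of the neutral control wells; tested in H4 reporter cells; numbers are from one replicate; inactives centre near -14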
Mtb hypoxia rep growth: recorded beside Mtb hypoxia rep, whose call it bears; growth inhibition, %; measured here: M. tuberculosis growth (absorbance);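 0% = vehicle and 100% = reference antibiotic; read after six days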
* marks the source's active call; other numbers are inactive results; ? = inconclusive; . = not tested or not shown.

Values run as follows: RN4220 kill, Mtb hypoxia rep, BJeLR lethal, Autofluor counter, ugtP null kill, PrP 5UTR inh, Mtb hypoxia rep growth
> Cc1cc(C)c(C)c(S(=O)(=O)Nc2ccccc2N2CCOCC2)c1C
  6.9, 10.3, ., 3732, -5.0, -25.7, -0.9
> CC1(C)C(=O)Nc2ccccc2N1C(=O)COC(=O)COc1cccc(C(F)(F)F)c1
  5.0, 4.7, 0.5, 6414, -3.9, -16.5, 2.0
> C=CCOc1ccc2cccc(/C=N/NC(=O)c3cc4cc([N+](=O)[O-])ccc4s3)c2c1
  ., ., -2.5, 15725, ., -0.6, .
> O=C(CCC1CCCN(Cc2ccncc2)C1)NCc1ccc(F)c(F)c1 (stereo unspecified)
  4.1, 6.3, 4.8, 4703, 1.4, -1.8, 11.2
> CCOC(=O)N1CCC(NC(=O)CCC(=O)N2CC(C)Oc3ccc(Cl)cc32)CC1 (stereo unspecified)
  -6.9, 6.7, -2.1, 2802, -2.5, -17.8, 15.0
> CCN(CC)CCN(C(=O)C1=COCCO1)c1nc2cc3c(cc2s1)OCO3
  2.1, 7.1, 6.2, 4758, 6.4, -13.1, -4.5
> Cc1cccc(C2c3[nH]c4ccccc4c3CCN2C(=O)c2ocnc2C)n1 (stereo unspecified)
  7.4, 11.7, 0.8, 4014, 9.3, -20.0, 0.0
> COc1ccc(C(=O)CSc2nnc(NC(=O)C3CC(=O)N(c4cccc(OC)c4)C3)s2)cc1 (stereo unspecified)
  -4.1, 14.9, -8.9, 7651, 6.7, -20.4, 11.1
> COc1ccc(-c2cc(C(=O)NCc3ccco3)c3ccccc3n2)cc1OC
  1.1, 14.8, 3.2, 5330, 5.9, -15.0, 3.5
> COc1ccccc1N(C(=O)c1ccco1)C(C(=O)NC1CCCCC1)c1cc(OC)c(OC)c(OC)c1 (stereo unspecified)
  1.9, 4.9, -3.5, 4112, 3.1, -16.9, 2.6
> CC1(C)CC(NC(=O)C2CCC(=O)N(C3CC3)C2)CC(C)(C)C1 (stereo unspecified)
  5.4, 6.7, 5.8, 6211, 11.6, -19.0, -1.3
> Nc1ncc(Br)cc1S(=O)(=O)N1CCCCCC1
  1.0, 4.9, 0.9, 5361, -1.4, -15.1, 3.9
> O=C(Nc1ccc(Cl)c([N+](=O)[O-])c1)c1ccco1
  1.3, 11.9, 1.4, 3999, 0.0, -24.3, 0.0
> Cc1csc(NC(=O)c2ccc3nc[nH]c3c2)n1
  0.6, 2.2, 7.8, 5433, 0.0, -45.0, -2.8
> O=C(CC(=O)Nc1ccccc1[N+](=O)[O-])Nc1ccccc1[N+](=O)[O-]
  -3.3, -7.2, -13.9, 3034, -2.4, -5.1, -5.4
> CC1CN(CCOc2ccccc2-c2ccccc2)CC(C)O1 (stereo unspecified)
  6.0, 4.8, -11.6, 1955, 6.9, -12.8, 3.6
> COc1cc(OC)cc(-c2nnc(Nc3nc4c(F)cccc4s3)o2)c1
  -4.5, -9.0, 3.2, 9081, -6.2, -26.3, -5.8
> Cc1ccc(NC(=O)c2oc3ccccc3c2NC(=O)C2CCCO2)cc1C (stereo unspecified)
  -6.4, 4.5, 6.3, 4121, 1.9, -102.2, -4.0
> O=C(NCC(=O)N1CCN(C/C=C/c2ccccc2)CC1)c1ccc(OC(F)F)cc1
  5.9, 8.1, ., 6528, 12.3, -2.3, 10.9
> O=C(O)/C=C/c1cn(-c2ccccc2)nc1-c1cccc([N+](=O)[O-])c1
  7.8, 4.9, 2.9, 4013, 1.5, -37.8, 4.5

Continued, overlapping the part above by five compounds.
Values run as follows: RN4220 kill, Mtb hypoxia rep, BJeLR lethal, Autofluor counter, ugtP null kill, PrP 5UTR inh, Mtb hypoxia rep growth
> CC1CN(CCOc2ccccc2-c2ccccc2)CC(C)O1 (stereo unspecified)
  6.0, 4.8, -11.6, 1955, 6.9, -12.8, 3.6
> COc1cc(OC)cc(-c2nnc(Nc3nc4c(F)cccc4s3)o2)c1
  -4.5, -9.0, 3.2, 9081, -6.2, -26.3, -5.8
> Cc1ccc(NC(=O)c2oc3ccccc3c2NC(=O)C2CCCO2)cc1C (stereo unspecified)
  -6.4, 4.5, 6.3, 4121, 1.9, -102.2, -4.0
> O=C(NCC(=O)N1CCN(C/C=C/c2ccccc2)CC1)c1ccc(OC(F)F)cc1
  5.9, 8.1, ., 6528, 12.3, -2.3, 10.9
> O=C(O)/C=C/c1cn(-c2ccccc2)nc1-c1cccc([N+](=O)[O-])c1
  7.8, 4.9, 2.9, 4013, 1.5, -37.8, 4.5
> NC(=O)Cc1nc(-c2ccccc2)cs1
  2.8, 8.5, 7.9, 2484, 0.7, -11.8, 1.0
> CSc1nc(=S)n(-c2cc(C)ccc2C)c(C)c1C(C)=O
  5.5, 4.4, 4.6, 3197, 4.1, 8.6, -1.1
> CCN(CC)S(=O)(=O)c1ccc(Cl)c(NC(=O)c2ccc(C#N)cc2)c1
  9.6, 10.2, -7.4, 2118, 7.8, -2.8, 2.7
> COc1ccc(-c2csc(NC(=O)Cc3ccccc3F)n2)c(OC)c1
  -7.9, 11.6, -0.7, 4455, 3.1, -16.2, 6.6
> CCOc1cc(/C=C(\C(=O)O)c2ccc(S(=O)(=O)N3CCCC3)s2)ccc1OC
  0.0, -2.1, ., ?, -5.8, ., 0.1
> CC(=O)c1cc(C(c2csc(C(C)=O)c2)c2csc(C(C)=O)c2)cs1
  -0.4, -1.8, -5.3, 4184, -2.8, -9.5, 0.6
> N#Cc1ccc(NC(=O)Cn2cnc(S(=O)(=O)N3CCc4ccccc43)c2)cc1
  0.7, 8.0, 9.4, 5238, -0.2, -2.3, 6.2
> O=C(CCc1nc(-c2ccccc2F)no1)Nc1ccc(Oc2ccccc2)cc1
  -14.7, ., 0.0, 3695, -19.9, -3.6, .
> CC(CCc1ccccc1)NC(=O)CN1CCOc2ccccc21 (stereo unspecified)
  -5.2, ., -13.4, 5632, 14.5, -19.2, .
> CN(C)CCNc1ccc(Cl)cc1[N+](=O)[O-]
  3.7, -0.9, -1.4, 2466, -0.3, -3.2, -3.5
> N=C1C(c2ccccc2)=C(O)CN1c1cccc(S(N)(=O)=O)c1
  5.1, 5.8, 0.1, 2823, 3.8, -15.7, 0.9
> CCN1C[C@]2(COC)CC[C@H](OC)[C@@]34C5C[C@H]6C(=O)C5[C@](O)(C[C@H]6OC)[C@@](O)(C(OC)C23)[C@@H]14 (stereo partly specified)
  6.4, ., -5.0, 5536, -13.6, -18.9, .
> CCOC(=O)C1=C(C)Nc2nc(SCc3cccnc3)nn2C1c1ccc(OC)cc1 (stereo unspecified)
  1.5, ., 5.0, 5375, 7.4, -2.0, .
> Cc1ccc(N2CC(=O)Nc3c(oc4nc(-c5ccccc5)cc(C)c34)C2=O)cc1
  -3.5, 4.0, 6.6, 5570, 4.4, -11.8, -6.4
> O=C(CSc1nnc(-c2ccccc2)o1)NCC1CCCCC1
  -0.5, 19.0, 5.4, 11617, 13.9, -16.8, 10.8
> COc1ccccc1NC(=O)C1CCCCN1S(=O)(=O)c1ccc(F)cc1 (stereo unspecified)
  2.9, 3.6, 0.0, 16434*, 6.3, -9.5, 14.2
> Cn1c(=O)c2c(SCC(=O)Nc3cccc(F)c3)nc(-c3ccco3)nc2n(C)c1=O
  1.1, 9.1, 2.5, 5688, -7.4, -16.3, 7.3
> Nc1nc(SCc2ccccc2)cc(SCc2ccccc2)n1
  7.5, 4.0, ., 2924, 52.8, -23.8, 8.9
> COc1ccc(-c2c(C#N)c(N)n(N)c(=O)c2C#N)cc1Cl
  -6.4, -13.1, -1.8, 4310, 2.6, -9.8, -10.5
> O=C(NCc1ccco1)C12CN(Cc3ccccc3)CC1C(c1cccc([N+](=O)[O-])c1)=NO2 (stereo unspecified)
  ., ., -8.0, 2934, ., -6.7, .
> COc1ccc(S(=O)(=O)c2ccc(O)cc2)cc1
  2.8, 2.4, -7.7, 3803, 2.5, -12.1, 2.2
> COc1cccc(-n2cnc3sc(C)c(C)c3c2=O)c1
  4.2, 4.1, -9.1, 7091, 1.3, -27.6, 8.3
> O=C(N/N=C/c1ccc(OC(F)F)cc1)c1cccc(S(=O)(=O)N2CCOCC2)c1
  ., ., -9.8, 3903, ., -12.0, .
> COc1ccccc1CN1CC(C(=O)NCCc2ccccc2Cl)CCC1=O (stereo unspecified)
  0.7, 7.5, -9.3, 5416, 6.6, -7.7, 5.4
> Cc1cc(C(=O)Nc2ccccc2C(F)(F)F)no1
  -0.4, 2.3, -4.7, 24116*, -0.5, -4.6, 7.7
> O=C(OCC(=O)N1CCCCCC1)c1ccccc1Br
  3.9, 8.4, ., 4048, 3.3, -76.3, 4.8
> CCSc1ccccc1C(=O)NCc1ccc(S(N)(=O)=O)cc1
  -5.3, -3.2, 6.2, 23721*, -0.6, -10.0, -2.9
> CC1C(=O)CC(c2ccc([N+](=O)[O-])cc2)NC1c1ccc([N+](=O)[O-])cc1 (stereo unspecified)
  15.9, 15.1, 12.7, 4510, 3.3, -14.8, -3.1
> CC(=O)N(c1ccccc1)C(C)c1nc(C#N)c(C#N)nc1C (stereo unspecified)
  4.7, 11.8, 5.8, 10429, 0.0, -22.8, 5.6
> N#Cc1c(F)cccc1NCc1cccnc1
  4.7, 7.4, -5.2, 3247, 3.4, -9.9, -0.6
> CCC1SC(CC)C(=O)N(CC(=O)NC2CCCCC2)C1=O (stereo unspecified)
  0.4, 0.2, ., 3478, 5.9, -18.1, 2.9
> O=C(O)CCCC(=O)Nc1ccccc1C(=O)O
  3.3, 9.8, -2.2, 10515, 2.7, -41.4, 8.7
> C=CCn1c(SCC(=O)Nc2ccc3c(c2)OCCO3)nnc1-c1ccccn1
  3.5, 6.7, 1.9, 5960, -3.0, -13.3, -2.5
> COc1ccc(C2=NCC(CSc3nnnn3C)S2)cc1 (stereo unspecified)
  3.1, ., 12.2, 5032, 8.4, -38.5, .
> CCCCN1c2cc(C)c(O)cc2C(C(=O)OCC)C1C (stereo unspecified)
  8.3, 7.1, 4.5, ., 7.1, ., 5.5
> CCCCCC1CC(CC/C(C)=N/NC(N)=O)C(=O)O1 (stereo unspecified)
  ., ., 5.3, 4343, ., -0.4, .
> COC(=O)Cn1cnc2c(nnn2Cc2ccc(Cl)cc2)c1=O
  6.9, 3.7, -5.2, 11070, 4.5, -27.4, 2.8
> Cc1ccc(-c2nc(N)sc2CC(=O)OCC(=O)NCC2CCCO2)cc1 (stereo unspecified)
  3.2, 15.8, -13.7, 2290, 4.9, -30.0, 10.1
> CC1=C(C(=O)OC(C)C)C(c2cccs2)C(C(=O)OC(C)C)=C(C)N1
  ., ., 4.7, 2602, ., -24.3, .
> O=C1CCCCC(=O)c2ccccc2N1
  0.8, 3.4, -4.4, 4328, -2.6, -11.6, 6.0
> O=C(CN(Cc1ccco1)S(=O)(=O)c1cccs1)Nc1ccccc1C(F)(F)F
  7.6, ., -7.3, 4621, -6.0, -10.6, .
> O=C1C(=O)N(CCS(=O)(=O)c2ccccc2)c2ccc(F)cc21
  7.8, 2.0, -4.0, ?, 2.6, -12.7, 6.2
> Cc1ccc(N(CC(O)CN2CCCCC2)S(=O)(=O)c2ccccc2[N+](=O)[O-])cc1 (stereo unspecified)
  2.5, 4.8, -2.1, 4917, 5.7, -19.8, 0.9
> CCN1CCN(C(=O)CCCn2c(C)c3cnn(-c4ccccc4)c(=O)c3c2C)CC1
  -6.0, 8.6, -2.9, 4810, -3.5, 18.8, 9.9
> Cc1ccccc1C(=O)NC(=S)NCCC1=CCCCC1
  7.1, -3.7, 0.3, 3360, 6.3, -41.0, 5.5
> Cc1ccc(N2C(=O)C(CN3CCOCC3)C2c2ccccc2)cc1 (stereo unspecified)
  10.3, 10.0, 0.9, 3450, 5.1, -40.5, 6.4
> O=C(CC(NC(=O)c1ccccc1)c1ccccc1)NCc1ccccc1 (stereo unspecified)
  2.3, 9.1, ., 3728, -1.2, -15.3, 7.5
> COc1ccc(NC(=O)C2CCCN(S(=O)(=O)c3cccs3)C2)cc1OC (stereo unspecified)
  2.4, -0.8, -12.1, 12102, 0.4, -3.9, 2.9
> Cc1oc(-c2ccccc2Cl)nc1CSc1nc2c(c(=O)[nH]1)CCC2
  6.9, 5.2, 2.1, 5553, 6.7, 2.6, 6.6
> CCn1c(=O)cc(C(F)(F)F)[nH]c1=S
  14.3, 4.9, -3.6, 4505, 29.1, -1.6, -5.9
> O=C(Nc1ccc(F)cc1F)c1ccc(-n2cncn2)nc1
  -1.3, 16.1, 4.8, 21818*, 5.9, -6.1, 13.4
> O=c1[nH]nc(SCc2nnc(-c3ccc([N+](=O)[O-])cc3)o2)n1C1CCCCC1
  3.7, 3.0, -5.9, 5264, 11.0, -9.1, 13.0

Assay outcomes: PubChem BioAssay, several laboratories

Hits appear at their usual frequency; about 4% have a hit in one of these screens.
